Source: PubChem BioAssay (National Center for Advancing Translational Sciences (NCATS))
VDR inhibitor: Inhibitors of the vitamin D receptor (VDR): qHTS | VDR-SRC2-3 peptide fluorescence polarization, 2 h | Potency, µM, for the others: max response, negative = inhibition, most hits filed as inhibitors | AID 504847, 2011 | Vitamin D3 receptor (Homo sapiens), P11473 | 400,000 compounds, 0.93% hits; active means well fitted inhibition curve with a large enough effect; inconclusive means small, poorly fitted or top-dose-only effect, or another doubt; inactive means no such curve, though single readings can be large or run the other way; further: series mostly up to about 120 µM
Target sequence (P11473 whole entry, looked up): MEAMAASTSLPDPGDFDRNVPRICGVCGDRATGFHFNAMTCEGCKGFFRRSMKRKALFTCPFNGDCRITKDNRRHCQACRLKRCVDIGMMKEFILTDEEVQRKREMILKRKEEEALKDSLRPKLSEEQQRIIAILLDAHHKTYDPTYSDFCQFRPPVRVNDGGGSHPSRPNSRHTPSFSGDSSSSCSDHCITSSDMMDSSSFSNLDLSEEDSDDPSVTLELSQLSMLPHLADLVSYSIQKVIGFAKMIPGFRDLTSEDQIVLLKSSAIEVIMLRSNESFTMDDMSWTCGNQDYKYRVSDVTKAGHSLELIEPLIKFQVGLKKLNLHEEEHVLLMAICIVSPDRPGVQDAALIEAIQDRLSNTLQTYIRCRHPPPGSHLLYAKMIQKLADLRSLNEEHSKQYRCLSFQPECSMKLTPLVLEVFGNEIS
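FP read-out; VDR + SRC2-3 coactivator peptide; 23 nl compound by pintool; 2 h RT incubation; reagents held at 4 deg C, protected from light.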
* = called active by the depositor; & = joins results of further samples; [ ] = another dose, or the depositor's remark. On the % scale 0 is the no-effect control and ±100 the full control effect; potency means the concentration at half of the fitted maximal effect. Only part of the results is shown (hit frequency here may not be typical).

For Cc1ccc2cc(/C=N/Nc3ccc(C(=O)O)cc3)c(Cl)nc2c1 the results were VDR inhibitor -20%.
Screening CCS(=O)(=O)n1nc(-c2ccccc2)nc1SC returned VDR inhibitor -2%.
For C=C(C)CNC(=S)N/N=C(\C)c1ccc(-n2ccnc2)cc1 the results were VDR inhibitor -19%.
For CCc1ccc(-c2[nH]nc3nc(-c4cc(OC)ccc4OC)cc(C(=O)O)c23)cc1 the results were VDR inhibitor 8%.
For O=C(Nc1ccccc1-c1ccccc1)c1cccc(C(F)(F)F)c1 the results were VDR inhibitor -1%.
Screening CN1CCN(CC(O)COC(c2ccc(Cl)cc2)c2ccc(Cl)cc2)CC1 (centres undefined) returned VDR inhibitor 2%.
c1ccc(COc2ncnc3c2ncn3CCCN2CCN(c3ccccn3)CC2)cc1 was read as VDR inhibitor -4%.
Screening Clc1ccccc1OCc1nc(-c2ccc(Br)o2)no1 returned VDR inhibitor 4%.
For O=C1CCCN1CCCN=c1c([N+](=O)[O-])nn(-c2ccc(Cl)cc2)n1O the results were VDR inhibitor 17%.
Screening COc1ccc(O)c(/C=N/NC(=O)CSc2nnc(C)n2-c2ccccc2)c1 returned VDR inhibitor 9%.
`CC(=O)OCCn1c(Br)nc2c1c(=O)[nH]c(=O)n2C` gave VDR inhibitor -4%.
`CCOC(=O)c1cnc(-n2nc(C)cc2C)nc1Nc1ccc(OC)cc1` gave VDR inhibitor -22%.
For Cc1ccccc1-c1nc(CN(Cc2c(C)nn(C)c2C)C2CC2)c(C)o1 the results were VDR inhibitor -17%.
For Cc1ccc(S(=O)(=O)N2CCCCC2)cc1C(=O)NCc1ccc(S(N)(=O)=O)cc1 the results were VDR inhibitor -6%.
`CCCCc1n[nH]c(=S)n1Cc1ccccc1` gave VDR inhibitor -15%.
Screening Cn1c(SCc2ccc(C(=O)Nc3nccs3)cc2)nnc1-c1ccccc1 returned VDR inhibitor 14%.
Screening CC1Cc2nc(SCC(N)=O)n(Cc3ccccc3)c(=O)c2S1 (centres undefined) returned VDR inhibitor -11%.
Screening CCOc1ccccc1C1C(C(=O)Nc2ccccc2OC)=C(C)Nc2nc3ccccc3n21 (centres undefined) returned VDR inhibitor -11%.
For C#CCOCCOCCOCCNc1nc(N2CCN(C(=O)CCCCCCCCCCNC(=O)Cn3cc(CCCCCN)nn3)CC2)nc(N2CCN(C(=O)CCCCCCCCCCNC(=O)[C@H](CO)n3cc(CCCCCN)nn3)CC2)n1 the results were VDR inhibitor -3%.
For Cc1cccc(N2CCN(C(=O)CCN3C(=S)NC(C)(C)CC3C)CC2)c1C (centres undefined) the results were VDR inhibitor -13%.
O=C(N[C@@H]1CCC(=O)N(CC[C@H](Sc2ccc(Br)cc2)c2ccccc2)CC1)OCc1ccccc1 was read as VDR inhibitor -14%.
For CCOc1ccc(S(=O)(=O)NC(C)C(=O)NCc2ccccn2)cc1 (centres undefined) the results were VDR inhibitor -15%.
Screening Cn1c(-c2ccccc2[N+](=O)[O-])[n+](C)c2ccccc21 returned VDR inhibitor 12%.
Screening CCN(CC)S(=O)(=O)c1ccc(NCc2ccccc2)nc1 returned VDR inhibitor 6%.
For CCCCN(CC)CCCNC(=O)c1sc2nc3n(c(=O)c2c1C)CCCCC3 the results were VDR inhibitor 18%.
Screening O=C(COc1ccccc1Cl)OCc1cc(=O)n2nc(C3CC3)sc2n1 returned VDR inhibitor 15%.
`O=C(NN1C(=O)NC2(CCCCC2)C1=O)c1cc(F)cc(F)c1` gave VDR inhibitor -13%.
CCOC(=O)C(Cc1c(F)cccc1F)(NC(C)=O)C(=O)OCC was read as VDR inhibitor 5%.
For O=C(c1ccccc1)c1ccc(Oc2ncccn2)cc1 the results were VDR inhibitor 10%.
For Cc1ccc(N2C(=O)CN(Cc3sccc3C)C2=S)cc1C the results were VDR inhibitor 5%.
For Cc1cc(C)c2cc(CN(Cc3cccs3)Cc3nnnn3CC3CCCO3)c(=O)[nH]c2c1 (centres undefined) the results were VDR inhibitor 8%.
For N#Cc1ccc(C(=O)N2CCN(S(=O)(=O)c3ccc(Cl)s3)CC2)cc1 the results were VDR inhibitor 3%.
Cc1ccc(NC(=O)COC(=O)CCc2ccc(S(=O)(=O)N3CCOCC3)cc2)cc1F was read as VDR inhibitor -19%.
`N#Cc1ccc(C(=O)NC(=S)N2CCN(C=O)CC2)cc1` gave VDR inhibitor -11%.
`COc1ccc2c(c1)c1c(c(=O)n(-c3ccc(C)cc3)c(=O)n1CC(=O)c1ccc(Cl)cc1)n2C` gave VDR inhibitor 6%.
Screening CCOC(=O)N1CCC(NC(=O)C2CCN(S(=O)(=O)c3ccc4c(c3)oc(=O)n4C)CC2)CC1 returned VDR inhibitor 102%[activator].
`O=C(COc1ccc(S(=O)(=O)N2CCOCC2)cc1Cl)NC1CC1` gave VDR inhibitor -27%.
Cc1ccc(Cl)cc1NC(=S)N(CCCN1CCOCC1)Cc1ccccn1 was read as VDR inhibitor -9%.
CCN1C[C@@H]2[C@@H]3C(=O)N(C)C(=O)[C@@H]3[C@](CC)(C1=O)N2C(=O)c1ccc(F)cc1 was read as VDR inhibitor 2%.
CCN(CC)c1ccc(/C=N/NC(=O)CNC(=O)c2ccc3c(c2)OCCO3)cc1 was read as VDR inhibitor -17%.
`Cc1ccc(NC(=O)CSc2nnc(CNC(=O)c3c(F)cccc3Cl)o2)cc1` gave VDR inhibitor 11%.
O=C(COC(=O)[C@H](Cc1c[nH]c2ccccc12)NC(=O)c1cccs1)NCc1ccccc1 was read as VDR inhibitor -17%.
Screening COc1ccc(NC(=O)CSc2nnc(C)s2)cc1S(=O)(=O)N1CCOCC1 returned VDR inhibitor 1%.
Cc1ccc(CCSc2ccc(C(C)C)cc2)cn1 was read as VDR inhibitor -10%.
COc1ccc(S(=O)(=O)N2CCOCC2)cc1NC(=O)C1CCCCN1S(=O)(=O)c1ccccc1 (centres undefined) was read as VDR inhibitor 4%.
`Cc1cc2cc3c(cc2nc1SCc1ccccn1)OCCO3` gave VDR inhibitor 11%.
Screening CCOc1ccc(NS(=O)(=O)c2ccc3[nH]c4c(c3c2)CCCC4)cc1 returned VDR inhibitor 23%.
CS(=O)(=O)c1oc(-c2ccc(F)cc2)nc1S(=O)(=O)c1ccc(Cl)cc1 was read as VDR inhibitor inconclusive.
CCC(Cn1nnc2ccccc2c1=O)NC(=O)Nc1cc(Cl)ccc1OC (centres undefined) was read as VDR inhibitor 3%.
Cc1cccc(N2CCN(C3=NC(=O)C(Cc4ccccc4)S3)CC2)c1 (centres undefined) was read as VDR inhibitor 11%.
CC(C)CC(C(=O)Oc1ccc2c3c(c(=O)oc2c1)CCC3)N1C(=O)c2ccccc2C1=O (centres undefined) was read as VDR inhibitor -6%.
`COc1ccc(NC(=O)c2ccc3c(c2)nnn3C2CCCC2)cc1Cl` gave VDR inhibitor 6%.
For CSc1nsc(SCC(=O)Nc2c(C)n(C)n(-c3ccccc3)c2=O)n1 the results were VDR inhibitor -12%.
Screening CC1CCCC(n2cnc3cc(C(=O)O)ccc32)C1C (centres undefined) returned VDR inhibitor -5%.
CCOc1ccc(NC(=O)C2CCN(S(=O)(=O)c3c(C)n[nH]c3C)CC2)cc1 was read as VDR inhibitor -3%.
`Cc1cc(C(=O)COC(=O)c2ccc(Br)o2)c(C)n1C` gave VDR inhibitor -15%.
CC(=O)c1cccc(NC(=O)c2ccc(NC(=O)CCS(=O)(=O)c3cccs3)cc2)c1 was read as VDR inhibitor 3%.
For CC1CN(C(=S)NC(=O)c2ccc([N+](=O)[O-])cc2)CC(C)O1 (centres undefined) the results were VDR inhibitor 1%.
COc1ccc2nc(NC(=O)c3nc(S(=O)(=O)Cc4ccccc4F)ncc3Cl)sc2c1 was read as VDR inhibitor -5%.
`CSc1ccccc1C(=O)NCCSc1ccc(C)cc1` gave VDR inhibitor -11%.
For O=C(c1cnccn1)N1CCC2(CC1)CN(Cc1ccccc1)C2 the results were VDR inhibitor 1%.
COc1cc(/C(C)=N/N2CCN(Cc3ccc(C)cc3)CC2)ccc1O was read as VDR inhibitor -18%.
Screening Cn1ccc(C(=O)N/N=C/c2ccncc2)n1 returned VDR inhibitor 13%.
For COCCn1c(=O)c(-c2cccc(C#N)c2)nc2cnc(Oc3ccccc3)nc21 the results were VDR inhibitor 6%.
Screening CC(=O)N1CCSc2ccc(S(=O)(=O)NCc3ccccc3)cc21 returned VDR inhibitor 0%.
COc1ccc(-c2nc3cc(NC(=S)NC(=O)Cc4ccccc4)ccc3o2)cc1 was read as VDR inhibitor -27%.
Screening O=C(COC(=O)c1ccc([N+](=O)[O-])s1)Nc1ccc(F)cc1 returned VDR inhibitor -16%.
CC1SC(=NC(=O)c2ccco2)NC1=O (centres undefined) was read as VDR inhibitor -9%.
For Cc1nc(N(C)Cc2ccccc2)c2nnn(Cc3ccccc3)c2n1 the results were VDR inhibitor 4%.
For Cc1cc2nc(/N=C(\N)NC(=O)N3c4ccccc4Sc4ccccc43)nc(C)c2cc1C the results were VDR inhibitor 30%&-16%.
Screening COc1ccc2nc(C)cc(N3CCN(c4ccccc4)CC3)c2c1 returned VDR inhibitor 5%.
For Cc1cc(OC2CCCCC2)nc(NCc2ccccc2)n1 the results were VDR inhibitor -10%.
For CC(C)Cn1c(N)c(C(=O)COC(=O)CC23CC4CC(CC(C4)C2)C3)c(=O)n(C)c1=O the results were VDR inhibitor 2%.
For Cc1ccc(NC(=O)CCn2cccc2)cc1 the results were VDR inhibitor -1%.
Screening CCCn1nc2cc(C(=O)NCCc3ccc(C)cc3)ccc2c1OCC returned VDR inhibitor -11%.
COc1cc2c(cc1OC)C(C)N(C(=O)c1sccc1C)CC2 (centres undefined) was read as VDR inhibitor -11%.
`C=CCNCC#CCOc1ccc(OC)cc1` gave VDR inhibitor 7%.
Screening COc1ccc(-n2cc(-c3ccccc3)c3c(NCCOCCO)ncnc32)cc1 returned VDR inhibitor -7%.
COc1ccc(CN(C)C(=O)/C=C/c2ccc(S(=O)(=O)N3CCOCC3)cc2)cc1F was read as VDR inhibitor 3%.
CCOc1ccc(-n2c(SCC(=O)c3ccccc3)nc3c([nH]c4ccccc43)c2=O)cc1 was read as VDR inhibitor -6%.
CCCc1c(C(=O)N/N=C/c2ccc(OCc3ccccc3)c(OC)c2)nnn1-c1nonc1N was read as VDR inhibitor 8%.
For O=C(O)CC(Cc1ccc(Cl)cc1)C(=O)Nc1ccc([N+](=O)[O-])cc1 (centres undefined) the results were VDR inhibitor 8%.
COc1ccc(/C=N/Nc2ccccc2C(=O)O)cc1 was read as VDR inhibitor -6%.
`CC(C)NC(=S)NN=C1c2ccccc2-c2ccccc21` gave VDR inhibitor -4%.

Ordered by SMILES length (descending): 4 of the compounds above
CCCc1c(C(=O)N/N=C/c2ccc(OCc3ccccc3)c(OC)c2)nnn1-c1nonc1N was read as VDR inhibitor 8%.
For O=C(O)CC(Cc1ccc(Cl)cc1)C(=O)Nc1ccc([N+](=O)[O-])cc1 (centres undefined) the results were VDR inhibitor 8%.
Screening COc1ccc(-n2cc(-c3ccccc3)c3c(NCCOCCO)ncnc32)cc1 returned VDR inhibitor -7%.
COc1ccc(/C=N/Nc2ccccc2C(=O)O)cc1 was read as VDR inhibitor -6%.

New compounds follow
`Cc1cccc(-n2c(=O)c3c(n4cnnc24)-c2ccccc2CC32CCCCC2)c1` gave VDR inhibitor -8%.
`CCCNC(=O)C(=O)NCC(c1ccc2c(c1)OCO2)N1CCN(c2ccc(F)cc2)CC1` (centres undefined) gave VDR inhibitor 6%.
`O=c1cc(NC2CCCCC2)[nH]c(=O)[nH]1` gave VDR inhibitor -12%.
Screening O=C(Nc1ccc(S(=O)(=O)N2CCCC2)cc1)c1cccnc1 returned VDR inhibitor -6%.
CCOC(=O)C1(CCOc2ccccc2)CCN(CC2CC2)CC1 was read as VDR inhibitor -1%.
O=c1[nH]cc(NCCc2ccccc2)c(=O)[nH]1 was read as VDR inhibitor -3%.
For CCCCOc1ccc(CONS(=O)(=O)c2ccc(NC(C)=O)cc2)cc1Cl the results were VDR inhibitor -6%.
For CCN(C(=O)CSc1nnc(-c2ccncc2)n1C)C1CCS(=O)(=O)C1 (centres undefined) the results were VDR inhibitor 8%.
For CCOc1cc(S(=O)(=O)NC2CC(C)(C)NC(C)(C)C2)ccc1Cl the results were VDR inhibitor -2%.
Screening COc1ccc2c(c1)sc1ncc(C(=O)NCc3cccc(Cl)c3)c(=O)n12 returned VDR inhibitor 5%.
Screening CCC(C(=O)Nc1nc(C)c(C(=O)OC)s1)c1ccccc1 (centres undefined) returned VDR inhibitor 9%.
For CCc1ccc(-c2csc(NC(=O)Oc3ccccc3)n2)cc1 the results were VDR inhibitor 6%.
C=C1C(C(=O)Nc2cccc(OC)c2)C1C(=O)Nc1cccc(OC)c1 (centres undefined) was read as VDR inhibitor -14%.
`CCCCc1nc2cc(C(=O)N3CCCCC3COC)ccc2o1` (centres undefined) gave VDR inhibitor -9%.

Compounds from the list above that have a COOH group (5):
For Cc1ccc2cc(/C=N/Nc3ccc(C(=O)O)cc3)c(Cl)nc2c1 the results were VDR inhibitor -20%.
For CCc1ccc(-c2[nH]nc3nc(-c4cc(OC)ccc4OC)cc(C(=O)O)c23)cc1 the results were VDR inhibitor 8%.
Screening CC1CCCC(n2cnc3cc(C(=O)O)ccc32)C1C (centres undefined) returned VDR inhibitor -5%.
For O=C(O)CC(Cc1ccc(Cl)cc1)C(=O)Nc1ccc([N+](=O)[O-])cc1 (centres undefined) the results were VDR inhibitor 8%.
COc1ccc(/C=N/Nc2ccccc2C(=O)O)cc1 was read as VDR inhibitor -6%.
